# RecA intein inh = blocks M. tuberculosis RecA intein splicing. cell-free RecA intein splicing, fluorescence. inhibition, %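 (about 9 µM by stock and volumes)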. hit rate 0.75% among 290,000; in the data active = inhibition above about 30%; inconclusive = no clear call, values can overlap the other calls;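 note: 0% = vehicle wells and 100% = reference inhibitor control wells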
# Target sequence (P9WHJ3 whole entry, looked up): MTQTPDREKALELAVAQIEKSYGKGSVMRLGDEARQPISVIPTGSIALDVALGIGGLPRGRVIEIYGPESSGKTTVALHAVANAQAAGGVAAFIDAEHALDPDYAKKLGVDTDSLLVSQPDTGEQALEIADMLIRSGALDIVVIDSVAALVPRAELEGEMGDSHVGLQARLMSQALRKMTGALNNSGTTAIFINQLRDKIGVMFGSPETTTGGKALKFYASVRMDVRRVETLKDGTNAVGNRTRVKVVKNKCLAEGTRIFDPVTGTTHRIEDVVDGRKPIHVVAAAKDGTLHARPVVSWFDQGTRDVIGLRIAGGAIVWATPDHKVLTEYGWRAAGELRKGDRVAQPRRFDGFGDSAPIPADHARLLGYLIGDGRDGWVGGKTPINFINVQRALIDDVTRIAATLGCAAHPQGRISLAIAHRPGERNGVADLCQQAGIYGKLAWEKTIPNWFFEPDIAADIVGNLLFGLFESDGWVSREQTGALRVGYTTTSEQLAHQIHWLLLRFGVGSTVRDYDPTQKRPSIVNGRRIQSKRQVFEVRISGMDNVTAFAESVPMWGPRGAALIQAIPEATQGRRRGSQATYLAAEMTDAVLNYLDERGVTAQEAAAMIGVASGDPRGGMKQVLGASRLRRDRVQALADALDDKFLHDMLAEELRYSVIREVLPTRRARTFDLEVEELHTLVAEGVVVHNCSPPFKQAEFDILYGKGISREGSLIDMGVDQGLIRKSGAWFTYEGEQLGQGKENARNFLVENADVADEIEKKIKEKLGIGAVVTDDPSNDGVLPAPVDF
# YopH PTP inh = blocks Yersinia enterocolitica YopH tyrosine phosphatase; fluorescence Ex485/Em525; inhibition, %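 (about 10 µM by stock and volumes)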; hit rate 0.16% among 140,000;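 active = inhibition of 50% or more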;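 note: controls were vehicle for no effect and minimum signal wells for full effect; inactives centre near -20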
# Mtb growth = M. tuberculosis H37Rv growth inhibitors, H37Rv strain (AID 1626); M. tuberculosis H37Rv growth inhibition; higher % means a stronger effect; inhibition, % at 10 µM; hits with a dose series show IC50 in µM; hit rate 0.95% among 220,000;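 active = confirmed in a dose series; inconclusive = inhibition above 80% but not taken into the dose series; inactive = below 80% or under 30% at every dose of the series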;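 note: bacteria incubated seven days before Alamar blue readout; 0% = bacteria only wells and 100% = bacteria with antibiotic wells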
# Mtb betalactam = beta-lactam sensitization of Mtb H37Rv; M. tuberculosis H37Rv growth with meropenem, percent inhibition; hits of this screen are not shown here; inhibition, % at 25 µM; hit rate 0.27% among 330,000;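 active = about 74% or more and at least 40 points above the plate without the antibiotic, then above 30% in a dose series; inconclusive = first-round hits that could not be retested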;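 note: growth measured after seven days incubation then overnight dye step; 0% = bacteria only wells and 100% = bacteria with antibiotic; twin plates without the antibiotic show which effects depend on it; some results filed as inactive read as strong as hits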
# Arbovirus inh = antivirals against arbovirus infection | arbovirus infection cell-based antiviral screen | inhibition, % at 10 µM | hit rate 0.37% among 200,000;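 active = inhibition from about 30%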;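 note: bluetongue infection of BSR cells; cell survival read as ATP light after 72 h; 0% = infected wells without compound and 100% = uninfected wells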
# Arbovirus inh repeat = further read-out of Arbovirus inh, marked with its call; inhibition, %; measured here: 10K subset replicate screen; many hits read low in the repeat;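 first of two repeat runs on a subset; 0% = infected and 100% = uninfected wells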
# Numbers without * were called inactive; ? = inconclusive; / = not tested or not shown. This is a subset; rates above refer to the full screens.
SMILES,RecA intein inh,YopH PTP inh,Mtb growth,Mtb betalactam,Arbovirus inh,others
CC(C)Oc1cccc(C(=O)C2CCCN(C(=O)c3cc(C4CC4)[nH]n3)C2)c1 (centres undefined),2.2,/,/,9.3,/,
O=C(c1cc([N+](=O)[O-])ccc1N1CCCCC1)N1CCCC1,0.0,-3.9,15.5%,1.3,-2.5,
O=C(O)c1ccc(Cn2cc(Cl)cn2)cc1,-0.2,-28.8,-5.7%,-1.5,0.7,
COc1ccc2[nH]c(C(=O)N3CCC(Cc4ccccc4)CC3)cc2c1,3.8,/,/,3.0,/,
O=C(Nc1ccccc1C(=O)N1CCCCC1)c1ccco1,1.9,/,/,3.1,/,
CCOc1ccc(-c2n[nH]c(C(=O)NN)c2C)cc1,0.2,-0.2,16.2%,-7.3,-4.9,
Cc1nc(Nc2ccc(Cl)cc2)c2nnn(Cc3ccccc3)c2n1,1.3,/,4.5%,4.0,-11.6,
Cc1nc(N2CCN(Cc3ccccc3)CC2)nc2c1CCC2,2.7,/,6.5%,-1.6,-8.3,
Cn1c(/C(C#N)=C(\O)c2ccc([N+](=O)[O-])s2)nc2ccccc21,1.5,/,/,-4.3,/,
CN(C)CCNC(=O)c1ccc(CS(=O)(=O)c2ccc(Br)cc2)o1,1.6,-42.6,-7.3%,-5.5,-3.7,Arbovirus inh repeat=-0.5
Cn1cc(CN(CCO)Cc2cccs2)c(-c2ccccc2F)n1,0.7,/,5.9%,0.9,5.4,
OCCNCCO,-0.1,/,/,-4.8,/,
CCOC(=O)c1nn(-c2ccc3c(c2)CCN3C(C)=O)cc1O,-0.1,-19.4,-5.0%,-3.7,-4.3,Arbovirus inh repeat=-2.0
Cc1c(C=O)c2ccccn2c1C(=O)c1ccc(Cl)c([N+](=O)[O-])c1,1.2,/,-6.6%,1.1,23.0,
CC(=O)Nc1cccc(NC(=O)CSc2nnnn2Cc2ccccc2)c1,/,-28.8,-5.7%,-9.6,4.3,
CCS(=O)(=O)n1nc(-c2ccc(C)cc2)nc1N,1.2,-4.5,-2.8%,5.2,1.4,
COC(=O)c1[nH]c2ccccc2c1NC(=O)C(C)N1CCOCC1 (centres undefined),-0.6,/,3.4%,-6.8,/,
CCNc1nn2ccccc2c1/C=C(\C#N)C(=O)OCC,-6.5,/,-2.5%,0.0,/,
CCOc1ccc(-n2nnc3c(=O)n(CC(=O)Nc4cc(C)on4)cnc32)cc1,1.6,/,2.7%,-3.5,/,
O=C(c1cc(C2CC2)on1)N1CCN(c2ccccc2)CC1,-0.1,-40.8,-0.4%,5.3,-1.1,
CC1CC(C)CN(S(=O)(=O)c2ccc(Cl)cc2)C1 (centres undefined),-1.3,/,/,4.2,/,
Cn1c(=O)c(=O)n(C)c2cc(S(=O)(=O)N3CCC(N4CCCCC4)CC3)ccc21,1.3,27.9,-2.9%,-2.3,/,
C=CCOc1ccc(CN(C)Cc2nc3cc(C(F)(F)F)ccc3c(=O)[nH]2)cc1,-3.2,/,12.4µM*,90.0,6.4,
COc1ccc(NC(=O)COc2ncnc3ccccc23)cc1S(=O)(=O)N1CCOCC1,-0.8,/,-8.5%,1.0,15.3,
Cc1ccc(CNC(=O)C2CC(=O)N(C3CCCCCC3)C2)cc1 (centres undefined),3.4,/,5.0%,-8.4,2.8,

# Quoted at random: four compounds from above
SMILES,RecA intein inh,YopH PTP inh,Mtb growth,Mtb betalactam,Arbovirus inh,others
C=CCOc1ccc(CN(C)Cc2nc3cc(C(F)(F)F)ccc3c(=O)[nH]2)cc1,-3.2,/,12.4µM*,90.0,6.4,
OCCNCCO,-0.1,/,/,-4.8,/,
CCNc1nn2ccccc2c1/C=C(\C#N)C(=O)OCC,-6.5,/,-2.5%,0.0,/,
CC(=O)Nc1cccc(NC(=O)CSc2nnnn2Cc2ccccc2)c1,/,-28.8,-5.7%,-9.6,4.3,

# Structures shown so far with a cyano group:
SMILES,RecA intein inh,YopH PTP inh,Mtb growth,Mtb betalactam,Arbovirus inh,others
Cn1c(/C(C#N)=C(\O)c2ccc([N+](=O)[O-])s2)nc2ccccc21,1.5,/,/,-4.3,/,
CCNc1nn2ccccc2c1/C=C(\C#N)C(=O)OCC,-6.5,/,-2.5%,0.0,/,

# The results go on:
SMILES,RecA intein inh,YopH PTP inh,Mtb growth,Mtb betalactam,Arbovirus inh,others
O=C(N/C(=C\c1ccccc1)C(=O)N1CCOCC1)c1ccccc1Cl,-1.5,/,/,-3.0,/,
Cc1ccc2oc(-c3ccc(C)c(NC(=O)Cc4cccs4)c3)nc2c1,-1.0,-39.8,/,15.6,-11.6,
O=C(c1ccc(NS(=O)(=O)c2cccc([N+](=O)[O-])c2)cc1)N1CCCCCC1,-3.8,/,/,1.3,/,
O=C(O)CN1c2cccc3cccc(c23)S1(=O)=O,-0.2,/,/,-2.7,/,
Cc1nn(-c2cc(N3CCCCC3)ccc2N)c(=O)c2ccccc12,-2.4,-18.1,-3.4%,/,11.1,
Oc1ccc(/C=N/Nc2ccnc3cc(Cl)ccc23)c(O)c1,0.1,/,4.5%,3.1,/,
CCOc1ccc2nc(/N=C/c3c(C)[nH]n(-c4ccccc4)c3=O)sc2c1,4.5,-25.9,?,93.7,-7.1,
O=C(Cc1ccc([N+](=O)[O-])cc1)NC(C(=O)O)C(O)c1cccc([N+](=O)[O-])c1 (centres undefined),-6.5,/,/,-13.3,/,
Cc1cc(OCCCCN2C(=O)NC(C)(C)C2=O)cc(C)c1Cl,3.4,23.5,6.1%,5.2,-3.3,
Cn1c(C(=O)NN)cc2cc(Oc3ccccc3)ccc21,19.2,/,/,0.1,/,
S=c1nc(-c2ccco2)[nH][nH]1,1.3,-12.5,-7.7%,-10.6,4.7,
CCc1cccc(NC(=O)CCNS(=O)(=O)c2cc(Br)cnc2N)c1,-1.5,/,/,1.3,/,
O=C(O)/C=C/C(=O)Nc1ccc(N2CCOCC2)nc1N1CCOCC1,-0.7,/,-0.5%,-7.1,/,
COc1ccccc1N(CC(=O)NC(C)(C)C)S(=O)(=O)c1cccs1,0.0,-11.9,5.5%,-1.6,2.1,
CSc1nc(C)c(CCOC(=O)c2ccccc2)c(=O)[nH]1,1.0,-13.9,0.3%,-0.4,6.0,
CC(=O)c1ccc(NC(=O)C(C)Nc2ccc(Cl)cc2)cc1 (centres undefined),1.5,/,4.1%,1.7,14.1,
COC(=O)[C@@]1(Cc2ccc(OC)cc2)[C@H]2c3cc(C(=O)N4CCCC4)n(C[C@H](O)CO)c3C[C@H]2CN1C(=O)c1ccccc1,1.3,/,-3.8%,-1.8,/,
N#Cc1c(N)nc2c(c1N)CC(CO)O2 (centres undefined),-1.5,-5.1,/,2.8,5.3,
CC(C)CC(CO)N1CCN(C(=O)c2cccc(Cl)c2)CCC1=O (centres undefined),2.0,/,13.7%,-2.4,/,
Cc1[nH]c(C)c(S(=O)(=O)NCc2ccc(F)cc2)c1C(=O)N1CCCCC1,1.6,/,/,-0.4,/,
O=C(CCC1CCCC1)Nc1nnc(-c2ccc3c(c2)OCO3)s1,-3.7,-11.1,/,1.2,4.2,
Cc1nn(-c2ccc(C(=O)O)cc2)c(C)c1Cl,0.5,/,-7.2%,-9.4,-0.6,
O=C(CN(CC1CCCO1)C(=O)CNS(=O)(=O)c1ccc(Cl)cc1)NC1CCCC1 (centres undefined),1.0,/,/,-5.0,/,
C=CCOC(=O)/C(=C\c1ccccc1)NC(=O)c1ccco1,-1.8,-11.6,-0.7%,-2.8,-1.8,
COC(=O)c1ccc(CO/N=C/c2ccccc2OC)cc1,13.3,/,/,58.8,/,

# (next part)
SMILES,RecA intein inh,YopH PTP inh,Mtb growth,Mtb betalactam,Arbovirus inh,others
Cc1nc(-c2ccc(NC(=O)CC(C)C)cc2)cs1,1.2,-23.4,31.2%,1.4,-4.0,
OCC[C@@H]1C[C@@H](O)[C@H](O)[C@]2(OCCc3ccccc32)O1,-3.1,/,/,-9.3,/,
CCc1nnc(NC(=O)CCC(=O)N2CCN(Cc3ccccc3)CC2)s1,-0.7,-46.1,5.1%,7.7,1.5,
CCNc1nc(N)nc(Oc2ccc(C(=O)OC)cc2)n1,-1.3,-19.9,4.2%,-2.7,8.2,
O=C(CCn1[nH]c(=O)c2ccccc2c1=O)OC1CCCCC1,-0.7,-24.1,-4.4%,-4.3,-1.0,
Cc1cc(=O)[nH]c(SCC(=O)c2ccccc2)c1C#N,-2.3,-14.6,-4.1%,46.7,2.6,
CC(CNC(=O)CN1C(=O)CCSc2ccccc21)c1ccccc1 (centres undefined),1.2,/,/,-6.1,/,
Cc1cc(C)n(CC(C)NCc2cn[nH]c2-c2ccc(C)c(C)c2)n1 (centres undefined),-1.4,/,1.2%,-3.3,3.8,
O=C1C=C(N2CCOCC2)c2ccccc2C1=O,96.8*,/,/,0.1,/,
CS(=O)(=O)N(CC(=O)NCc1ccco1)Cc1ccc(Cl)cc1,-8.5,-23.2,/,-1.7,-0.1,
COc1cccc(NC(=O)N(Cc2ccco2)C(C)c2cccs2)c1 (centres undefined),2.5,-13.9,1.7%,1.9,-2.5,
c1cnc(N2CCN(c3nc4ccccc4n4cnnc34)CC2)nc1,-4.8,-15.2,-5.0%,-15.7,-16.3,
CC1(C)Cc2ccccc2/C(=C/C(=O)N2CCCCCC2)N1,4.7,-12.0,4.8%,2.9,-1.6,
O=C(CSc1nc(-c2ccccc2)nc2ccccc12)Nc1nccs1,-2.2,-22.3,-10.8%,10.2,-7.2,
CC(=O)c1cccc(NC(=O)C(OC(=O)c2cccc(S(=O)(=O)N(C)c3ccccc3)c2)c2ccccc2)c1 (centres undefined),1.9,-14.8,0.9%,10.3,0.6,
COc1ccc(-c2c(C#N)c(SCC(N)=O)nc3c2CCCC3)cc1,4.5,3.1,2.5%,15.9,0.0,
CSCCC(=O)N1CCC(CCC(=O)NC2CC2)CC1,-2.1,/,/,-15.7,/,
Cc1c(/C(O)=C2/C(=O)C(=O)N(Cc3cccnc3)C2c2ccccn2)cnn1-c1ccccc1 (centres undefined),1.4,/,-2.6%,-6.0,-2.1,
O=C(Oc1ccc(Br)cc1C(=S)N1CCOCC1)c1cccc([N+](=O)[O-])c1,32.3*,/,/,-7.1,/,
COc1cccc(N2CCN(c3ccc4nnc(CCC(=O)Nc5ccc(F)cc5F)n4n3)CC2)c1,0.0,/,/,-7.7,/,
CC(=O)N1c2ccccc2C(=O)C1N1CCCCC1 (centres undefined),1.3,-18.6,-15.2%,-10.8,-7.0,Arbovirus inh repeat=7.2
CC(C)c1ccc(N2C(=O)CC(NNC(=O)c3ccccc3Cl)C2=O)cc1 (centres undefined),2.0,/,-2.0%,-12.7,/,
CC1/C(=N/O)CC(c2ccccc2)NC1c1ccccc1 (centres undefined),-2.1,-23.8,5.7%,4.9,2.9,
CCn1c(O)c(C=NCCc2c[nH]c3ccccc23)c(=O)[nH]c1=O,-3.3,0.0,-0.4%,-11.2,4.8,
COc1ccc(CCNC(=O)CCC(=O)Nc2nnc(C(C)C)s2)cc1OC,-0.5,-39.9,1.6%,-5.7,-3.6,

# Additional entries:
SMILES,RecA intein inh,YopH PTP inh,Mtb growth,Mtb betalactam,Arbovirus inh,others
CCOC(=O)c1nnn(CC(=O)Nc2ccccc2)c1C(=O)OCC,/,/,3.2%,-4.2,2.3,
COc1ccc(C2=C/C(=C\c3ccccc3OC(C)=O)C(=O)O2)cc1,1.1,/,/,9.1,/,
CC(C)C1C(C#N)=C(N)Oc2n[nH]c(-c3cccs3)c21 (centres undefined),14.7,-13.8,1.8%,-5.7,-5.4,
COc1ccc(CNC(=O)c2ccc(N(C)S(=O)(=O)c3ccc(C)cc3)cc2)cc1,-0.9,/,/,48.6,/,
Cc1nc(CSc2nnc(C)s2)cs1,-2.9,-39.2,-4.4%,1.3,0.1,
CCC(=O)Nc1nnc(C(C)(C)C)s1,1.5,-18.2,-9.2%,-6.9,-2.4,
CC(=O)N1c2ccc(S(=O)(=O)N3CCCC3)cc2CC1C(=O)NC(C)C (centres undefined),0.6,/,/,-3.5,/,
COc1cccc(Cn2cc(C)cc(NC(=O)NCc3ccccc3)c2=O)c1,3.9,/,/,4.3,/,
Cn1cnc(S(=O)(=O)NCc2cccs2)c1,-1.4,-19.0,1.9%,-2.3,-5.8,
COc1ccc(NC(=O)Cn2nc(Cc3cccnc3)c3ccccc3c2=O)c(OC)c1,0.7,/,-18.1%,-5.0,/,
C/C(=N\Nc1ncc(Cl)cc1Cl)c1ccc(N2CCOCC2)cc1,-5.7,/,1.5%,-1.2,-2.0,
CCSc1nc(-c2ccccc2)c(-c2ccccc2)n1CC(O)CO (centres undefined),4.7,/,7.7%,0.3,-4.2,
O=C(CC(Nc1ccc(F)cc1)c1ccccc1)c1ccccc1 (centres undefined),2.6,-19.3,1.2%,96.3,2.2,
COC(=O)CN1C(=O)C(O)(CC(=O)c2ccc(Br)cc2)c2ccccc21 (centres undefined),-1.0,-4.8,-10.2%,-4.3,-2.7,Arbovirus inh repeat=-6.0

# High-throughput results (PubChem)
